Compound activity (PubChem)
AF4-AF9 inh: inhibitors of human MLL-AF4/AF9 interaction; AlphaScreen, biotin-AF4 peptide binding to FLAG-AF9; AID 651704; inhibition, % at 10 µM; 0.47% of 350,000 active;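 active = every replicate reaching a set inhibition limit, whatever the replicate mean, cut at about 25% in these data; inconclusive = mean inhibition reaches that limit but some replicates miss it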;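 also: 0% = plate neutral control median and 100% = total signal loss; the record names both 10 and 1 µM as test concentration; the first replicate is given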
Target sequence (P42568 whole entry, looked up): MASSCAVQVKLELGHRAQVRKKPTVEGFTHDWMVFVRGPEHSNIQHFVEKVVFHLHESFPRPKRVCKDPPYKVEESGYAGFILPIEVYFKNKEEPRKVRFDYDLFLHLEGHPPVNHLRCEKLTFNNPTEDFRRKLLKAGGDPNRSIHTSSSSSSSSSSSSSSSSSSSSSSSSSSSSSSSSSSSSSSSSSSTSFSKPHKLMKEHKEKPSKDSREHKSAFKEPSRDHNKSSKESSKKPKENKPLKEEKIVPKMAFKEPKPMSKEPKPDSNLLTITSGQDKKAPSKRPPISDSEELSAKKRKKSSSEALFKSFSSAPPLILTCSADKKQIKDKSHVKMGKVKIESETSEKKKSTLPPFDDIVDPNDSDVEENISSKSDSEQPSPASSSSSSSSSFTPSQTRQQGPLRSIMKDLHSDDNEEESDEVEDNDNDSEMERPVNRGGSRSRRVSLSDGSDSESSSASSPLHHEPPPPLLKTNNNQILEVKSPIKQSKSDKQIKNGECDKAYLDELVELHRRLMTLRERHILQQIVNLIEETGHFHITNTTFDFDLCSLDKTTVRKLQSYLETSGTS
Vif A3G: inhibitors of Vif binding to APOBEC3G peptide, primary screen, biochemical, TR-FRET, GST-Vif 1-94, biotin-A3G peptide, dose response retest (AID 1117319). 0.57% of 260,000 active. TR-FRET GST-Vif / biotin-A3G peptide binding; higher % means a stronger effect; test concentration not given here; strong numbers were not always called active. inhibition, %, or IC50 in µM where a hit was titrated;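 active = above the screen mean plus three standard deviations and confirmed in dose response; inconclusive = results disagree or hit not tested in dose response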;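 also: Vif residues 1-94 fused to GST binding biotinylated APOBEC3G peptide 110-148; 0% = full assay without inhibitor and 100% = GST in place of GST-Vif; retest series ran down from 100 µM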
Ecoli rRNA inh: inhibits bacterial ribosomal RNA function over humanized ribosomes; E. coli WT GFP vs humanized-ribosome RFP mutants, fluorescence, 24 h; stronger effect = lower value; DMSO median 0, no signal -100; GFP signal change (wild-type ribosome), % (test concentration not listed); AID 720706; 1.6% of 350,000 active;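 active = significant combined selectivity score with lowered wild-type GFP, culture density cut under 30%, mutant RFP and density less affected; inactive = any of these conditions unmet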; also: one replicate is shown; some compounds called inactive have numbers as strong as hits
T cruzi repl: blocks replication of Trypanosoma cruzi; T. cruzi beta-gal in NIH3T3, luminescence, 90 h; inhibition, % (test concentration not listed); 1.4% of 300,000 active; AID 1885;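 active = mean inhibition across valid replicates above about 55%, limit read from the data; inconclusive = mean below that limit but half or more replicates reach it; inactive = mean below it, under half of replicates reach it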;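 also: signal also drops with host cell toxicity which is not excluded here; 0% = plate median of DMSO wells and 100% = zero luminescence signal; higher percent means less beta-gal luminescence so fewer parasites; stock transfer was 50 nL into about 50 µL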
Beta apoptosis: blocks beta cell apoptosis | 0.8% of 300,000 active | protection from apoptosis, % (concentration not given with the values) | INS-1E cytokine-induced death, ATP luminescence, 48 h; percent of positive-control rescue, neutral wells zero | AID 435005;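 active = all replicates at 75% or more, or half of them and the mean; inconclusive = half reach 75% but not the mean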;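 also: 0% = cytokine-treated negative control wells and 100% = positive control rescue; higher means more ATP so stronger rescue from cytokine killing; wells of about 40 µL received 100 nL stock; the first replicate is given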
RanGTP-Imp inh: disruptors of Ran-importin-beta complex formation – biochemical, FRET, CFP-Ran, YFP-importin-beta, homogeneous, primary screen. 1.1% of 300,000 active. cell-free CFP-Ran/YFP-importin-beta FRET ratio. inhibition, % (concentration not given with the values). AID 2216;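 active = most replicates above 15%; inconclusive = exactly half above 15%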;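 also: 0% = DMSO wells and 100% = Ran loaded with GDP instead of GTP; wells of about 40 µL received 100 nL stock; the first replicate is given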
Bfl-1 A1 inh: inhibitors of the anti-apoptotic protein A1, read as caspase activation | caspase activation, % (test concentration not listed) | MEF A1-2A-BIM cells, Caspase-Glo 3/7 luminescence, 3 h; percent of clofoctol response, vehicle zero | 0.066% of 330,000 active;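 active = over half of replicate activation scores above 10%, or exactly half above 10 with the replicate mean above 10; inconclusive = replicate mean below 10 yet half the replicates above 10; inactive = over half of replicates below 10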;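 also: wells of about 30 µL received 50 nL stock; many hits fall short of the cut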
Calb FLC: affects C. albicans growth with fluconazole | C. albicans CaCi-2 (fluconazole-resistant clinical isolate) + fluconazole, Alamar Blue growth, 48 h | growth inhibition, % (no concentration beside the values) | 0.57% of 300,000 active | AID 1979;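 active = most replicates above 75%; inconclusive = exactly half above 75%; inactive = most below 75%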;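 also: all wells also contain fluconazole at 8 µg/ml as a sub-toxic cotreatment; 0% = median of DMSO wells and 100% = median of geldanamycin control wells; wells of about 8 µL received 7.5 nL stock; the first replicate is given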
Ecoli rRNA inh OD600: also measured in Ecoli rRNA inh; calls as there; OD600 change, %; measured here: OD600 growth;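 optical density of the mix in the first replicate; 0 = DMSO median and -100 = no signal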
Ecoli rRNA inh RFP: also measured in Ecoli rRNA inh; calls as there; RFP signal change, %; measured here: RFP humanized mutant strains;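 first replicate; 0 = DMSO median and -100 = no signal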
An asterisk follows results filed as active; ? = inconclusive; nt = not tested or not shown. Not all compounds are listed, so the mix of outcomes need not match the whole.

SMILES	AF4-AF9 inh	Vif A3G	Ecoli rRNA inh	Ecoli rRNA inh OD600	Ecoli rRNA inh RFP	T cruzi repl	Beta apoptosis	RanGTP-Imp inh	Bfl-1 A1 inh	Calb FLC
O=C(NCCc1ccccc1)C1CCN(c2nc3ccccc3o2)CC1	0.9	-1%	6	5	-1.8	10	-2	4.5	0.7	11
C(=N\Nc1nc2ccccc2[nH]1)/c1ccc2ncccc2c1	nt	nt	0	3	-3.8	35	nt	0.9	-4.3	-1
Nc1cc(C(=O)OCC(=O)c2ccc(CC(=O)N3CCOCC3)s2)ccc1Cl	3.7	-4%	1	1	0.9	nt	2	nt	1.5	nt
CCN1C(=O)C(O)(CC(=O)c2cc(C)ccc2C)c2ccccc21 (stereo unspecified)	nt	29%	nt	nt	nt	-1	-4	-0.9	0.6	38
O=C(c1ccncc1)N(Cc1ccco1)Cc1cc2ccccc2[nH]c1=O	nt	-3%	nt	nt	nt	-10	-5	8.8	0.0	-4
COc1ccc(-n2c(C)cc(C(=O)CN3C(=O)c4ccccc4C3=O)c2C)cc1	nt	nt	nt	nt	nt	1	-4	-1.7	0.2	-7
Cn1ccnc1Sc1ccccc1[N+](=O)[O-]	0.9	19%	24	5	-0.5	-4	-6	2.4	0.8	-2
COc1ccc(C(=O)NCC(=O)N2CCN(c3ccc(F)cc3)CC2)cc1	-48	nt	4	8	0.1	-8	-6	0.7	0.4	-3
CCOC(=O)Cn1nc(NC(=O)c2cc(OC)cc(OC)c2)cc1C	-4.1	nt	5	12	2.4	-13	1	1.4	1.2	-5
NC(=O)C1(c2ccccc2)CCCN1C(=O)c1ccccc1Br (stereo unspecified)	0.6	nt	6	1	-3.1	-9	-6	-0.1	0.6	12
Cc1[nH][nH]c(=O)c1C(c1ccc(-c2ccc(Cl)cc2)o1)c1c(C)[nH][nH]c1=O	3.6	17%	12	9	-1.0	-18	-6	-3.8	0.9	-15
CCN(Cc1ccccc1)S(=O)(=O)c1ccc(S(=O)(=O)N(Cc2ccccn2)Cc2ccco2)cc1	nt	10%	nt	nt	nt	21	5	-1.4	0.1	-1
CC(=O)c1sc(N/N=C/c2cccc([N+](=O)[O-])c2)nc1C	-4.6	-2%	8	14	-2.2	26	12	3.7	-1.5	-3
COc1ccc(NS(=O)(=O)c2cc(-c3nnnn3C)ccc2OC)cc1	nt	22%	nt	nt	nt	-5	-2	-1.6	2.1	-3
Cc1ccc(NC(=O)c2ccc3c(SCC(=O)O)c4c(nc3c2)CCCC4)c(Br)c1	0.9	1%	-8	-15	-0.7	5	-5	-1.9	0.0	-6
Oc1ccc(Nc2ncnc3ccccc23)cc1	3.4	nt	5	4	2.8	-9	-1	-2.5	1.3	3
CCc1cc(=O)oc2c3c(cc(OCC(=O)NCCCOC)c12)OC(C)(C)CC3	-3.1	2%	-19	-16	-3.9	15	0	1.8	0.2	4
Cc1ccc(NC(=O)Cn2cccc2)cc1C	nt	3%	nt	nt	nt	-14	-2	-0.1	0.0	0
CC(=O)N1c2ccc(S(=O)(=O)NCCc3ccc(Cl)cc3)cc2CC1C (stereo unspecified)	-1.8	nt	-5	-11	5.6	5	-3	5.4	1.4	36
CN1/C(=C\C(=S)NC(=O)c2ccc([N+](=O)[O-])cc2)C(C)(C)c2ccccc21	nt	nt	nt	nt	nt	48	103*	0.3	0.7	?
C/C=C\C(=O)Nc1cccc(C2=NOC3(C2)C[C@@H](C(N)=O)N(C(=O)c2ccc(OC)cc2)C3)c1 (stereo partly specified)	-4.1	-12%	16	4	0.8	-21	-6	-1.0	1.5	-6
COc1ccc(N(CC(=O)Nc2nccs2)S(=O)(=O)c2c(C)[nH]c(=O)[nH]c2=O)cc1	-1.6	8%	16	22	6.7	-13	-6	?	1.1	-1
COc1ccc(/C=C2\SC(=S)N(NS(=O)(=O)c3ccc(C)cc3)C2=O)c(OC)c1	-2.8	-5%	-29	-47	-14	-6	0	-6.1	-0.6	52
Cc1cccc(NC(=S)NC2CC3CCCC(C2)N3Cc2ccco2)c1 (stereo unspecified)	6.7	4%	6	-8	-7.4	-32	-5	1.3	-0.6	-2
CCNC(=S)N1CCN(c2ccccc2OCC)CC1	nt	0%	nt	nt	nt	1	2	3.1	0.1	6
CC(C)(C)OC(=O)C[C@@H]1C/C=C\C[C@@H](CC(=O)N[C@@H](CO)Cc2ccccc2)C(=O)NC[C@@H](c2ccccc2)OC1=O	-2.8	nt	6	5	-0.1	nt	-1	nt	0.1	nt
Cc1ccc(-c2nnn(CC(=O)N(c3ccccc3)C(C(=O)NCC3CCCO3)c3cccs3)n2)o1 (stereo unspecified)	-0.4	nt	10	7	0.8	23	-6	6.3	0.9	14
CN1CCSc2ccc(C(=O)Nc3ccc(Cl)cc3)cc21	-3.1	-58%	1	3	-11	13	-2	2.6	-1.4	-10
COc1cc(/C=C2/SC(=S)N(CC(=O)O)C2=O)ccc1OC(=O)c1cccs1	-0.9	nt	-19*	-14*	5.5*	-4	-7	2.0	0.3	-6
Cc1ccc(NC(=O)Cn2c(CCC(=O)O)ccc2-c2ccc(Cl)cc2)cc1	-2.1	-1%	-25*	-8.9*	0.8*	0	-3	1.6	0.8	12
COc1ccc(C2CC(=O)N(C)c3ccccc3S2)cc1 (stereo unspecified)	-0.7	5%	-14	-19	-0.2	-3	-10	?	1.4	?
COc1ccc(/C=C/C(=O)NC(=S)Nc2ccccc2)cc1OC	-2.9	nt	10	11	0.5	-19	5	5.6	0.6	0
COC(=O)c1coc(-c2ccc(C)cc2)c1C(=O)OC	nt	-3%	nt	nt	nt	-2	-4	4.5	-0.2	-7
Cc1c(CCC(C)C)c(-n2ccnc2C)n2c(nc3ccccc32)c1C#N	nt	3%	nt	nt	nt	3	0	-2.4	0.5	6
C#CCO[C@@H]1C[C@H](n2cnc3c(NC(=O)c4ccccc4)ncnc32)O[C@@H]1CO	-1.5	nt	-3	3	3.3	-25	-4	0.3	0.4	10
Fc1ccc(CN2CCSCC2)cc1F	1.2	-3%	22	24	-1.6	4	-1	1.4	-0.6	-8
CSc1ccccc1NC(=O)c1ccccn1	-2.0	2%	-6	-6	-4.0	-2	-3	-1.7	-1.0	-20
S=c1[nH]nc(-c2cc(-c3ccsc3)n[nH]2)n1-c1ccccc1	-5.1	-21%	-17	-9	2.9	nt	0	-1.1	0.7	26
COc1ccc([N+](=O)[O-])cc1N(CC(=O)NC(C(C)C)C(C)C)S(C)(=O)=O	3.3	0%	4	4	-1.0	5	1	-1.1	0.0	-2
Cc1nc(NC(=O)COC(=O)c2ccc(CO)cc2)c(Cl)cc1Cl	-1.6	nt	4	10	0.1	nt	-4	nt	1.2	nt
CC(C)(C)C1CCC(=O)C(C2(O)C(=O)Nc3ccccc32)C1 (stereo unspecified)	nt	20%	3	-3	3.2	-6	-20	-1.8	0.1	-5
Cc1cc(NC(=O)CCC(=O)N(CC(=O)NCC2CCCO2)c2ccc(Cl)c(Cl)c2)no1 (stereo unspecified)	3.3	nt	-2	0	-1.6	-2	0	-1.0	-0.2	2
Cc1ccc(Cn2c(N3CCN(C)CC3)nc3c2c(=O)[nH]c(=O)n3C)cc1	-1.9	-4%	6	5	-0.4	-2	-5	3.2	0.6	-10
CCOC(=O)C1=C(C)NC(=O)NC1c1ccc(OC(=O)c2ccco2)c(OC)c1 (stereo unspecified)	7.9	-5%	2	-7	2.1	11	2	0.4	-0.7	-5
CC(=O)c1cccc(NC(=O)c2ccc(NS(=O)(=O)c3c(C)noc3C)cc2)c1	nt	-2%	nt	nt	nt	-6	6	-0.8	-0.6	-2
Cc1ccccc1C(=O)NCC(=O)NCC1(N2CCOCC2)CCCCC1	-1.8	-3%	1	12	-0.8	-4	-5	2.8	0.0	-2
Cc1cc(NC(=O)c2ccno2)no1	-1.3	1%	4	15	6.3	3	-1	-2.4	-0.5	-10
CCN(CC)CCNC(=O)C(Oc1ccccc1)Oc1ccccc1	-1.1	nt	12	23	2.8	-12	1	2.9	1.2	1
C/C(=N\NC(=O)c1ccc(-n2cnnn2)cc1)c1ccc(Cl)cc1	-3.0	-1%	12	8	1.2	nt	6	nt	0.1	nt
O=[N+]([O-])c1ccccc1S(=O)(=O)N1CCSCC1	0.5	5%	-4	8	-1.3	nt	-11	nt	-1.0	nt
CCn1nc(C(=O)OCC(=O)Nc2ncc(Cl)c(C)c2Cl)c2ccccc2c1=O	nt	nt	nt	nt	nt	3	-3	-2.3	1.4	-11
Cc1ccc(C(C(=O)NC2CCCCC2)N(C(=O)c2csnn2)c2ccccc2F)o1 (stereo unspecified)	-3.2	?	-1	0	-1.9	-3	-13	0.4	-0.2	0
O=C(CSc1nc2ccccc2[nH]1)c1ccccc1F	1.5	nt	-2	6	1.2	-3	-3	2.7	-4.1	1
Cc1cc(C)cc(NC(=O)NC2CCCCCCC2)c1	-2.2	nt	-9	-18	-2.4	nt	-3	nt	-1.0	-17
Cc1ccccc1NC(=S)NNc1ncc(C(F)(F)F)cc1Cl	nt	-6%	nt	nt	nt	-3	8	-2.3	-0.9	2
Cc1ccc(S(=O)(=O)N2CCCC2CNC(=O)C(=O)NCc2cccs2)cc1 (stereo unspecified)	6.3	2%	-3	6	0.4	9	nt	3.4	0.2	1
O=C(C[n+]1cccc(Br)c1)c1ccc(-c2ccccc2)cc1	3.7	-5%	-6	0	-1.5	5	0	1.3	0.0	4
Cc1csc(NC(=O)Nc2ccccc2[N+](=O)[O-])n1	3.6	12%	9	6	-0.7	0	-3	?	-6.3	30
COc1cccc(Nc2nc(NCCO)nc(N3CCCC3)n2)c1	-5.4	nt	-25*	-18*	-5.7*	7	-4	-1.6	0.8	6
Cc1cccc(C(=O)NCC(=O)NC(C)CCc2ccccc2)c1 (stereo unspecified)	-3.4	nt	-3	-1	2.0	-4	-2	2.1	0.7	-21
O=C(NCc1ccccn1)c1ccc(OC2CCN(Cc3ccc(Cl)s3)CC2)cc1	3.1	nt	-12	-20	0.2	-13	1	5.5	-0.6	-4
Cc1nc(NC(=O)c2ccccc2)sc1-c1csc(N)n1	nt	16%	nt	nt	nt	-16	12	3.5	-11	-11
COC(=O)C(C)NS(=O)(=O)c1ccc(NC(C)=O)cc1 (stereo unspecified)	-0.6	7%	14	9	-1.3	-6	4	?	0.2	2
